RGS16-Gao = modulators of RGS16 binding to Galphao, primary screen, biochemical, human proteins, multiplexed bead flow cytometry. Regulator of G-protein signaling 16 (Homo sapiens) + Guanine nucleotide-binding protein …. bead-based flow cytometry RGS16-Galphao binding, fluorescence; actives lie on both sides. binding response (% of control), % at 10 µM. 0.38% of 220,000 active;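 active = below 25% or above 175%, edge rows of some plates excepted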;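 note: Galphao activated by GDP with aluminum fluoride before binding; 100% = wells without compound and 0% = beads without RGS; some results beyond the cut were filed as inactive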
HSV augment = enhancers of HSV replication in host cells, fold increase, host cell viability; 0.005% of 220,000 active; maximum fold increase; HSV replication augmentation in cells;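 active = peak rise of 1.5-fold or more in the series; inconclusive = self-fluorescent or not available for retest; tested in PC3 cells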;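 note: first round at 10 µM; read as green reporter fluorescence; hits show the peak of a series up to 25 µM; 1 = signal of infected wells without compound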
GALR2 agonist = GALR2 receptor agonists, primary screen, cell-based; 0.48% of 140,000 active; Galanin receptor type 2 (Homo sapiens), O43603; GALR2-expressing cells, agonist activation read-out; activation, %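 (tested at 5 µM)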; AID 803, 2007;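 active = above mean plus 3 SD of all compounds, about 5% in these data, not always enough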;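 note: 0% = vehicle buffer wells and 100% = reference agonist at full effect; tested in CHO reporter cells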
PKD1 inh = inhibitors of human PKD1 kinase, biochemical, fluorescence polarization; PKD1 kinase fluorescence polarization assay; inhibition, %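 (about 10 µM by stock and volumes)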; 0.056% of 200,000 active; AID 797, 2007;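 active = inhibition of 50% or more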;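 note: controls were vehicle for no effect and a reference inhibitor for full effect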
Target sequence (Q15139 whole entry, looked up): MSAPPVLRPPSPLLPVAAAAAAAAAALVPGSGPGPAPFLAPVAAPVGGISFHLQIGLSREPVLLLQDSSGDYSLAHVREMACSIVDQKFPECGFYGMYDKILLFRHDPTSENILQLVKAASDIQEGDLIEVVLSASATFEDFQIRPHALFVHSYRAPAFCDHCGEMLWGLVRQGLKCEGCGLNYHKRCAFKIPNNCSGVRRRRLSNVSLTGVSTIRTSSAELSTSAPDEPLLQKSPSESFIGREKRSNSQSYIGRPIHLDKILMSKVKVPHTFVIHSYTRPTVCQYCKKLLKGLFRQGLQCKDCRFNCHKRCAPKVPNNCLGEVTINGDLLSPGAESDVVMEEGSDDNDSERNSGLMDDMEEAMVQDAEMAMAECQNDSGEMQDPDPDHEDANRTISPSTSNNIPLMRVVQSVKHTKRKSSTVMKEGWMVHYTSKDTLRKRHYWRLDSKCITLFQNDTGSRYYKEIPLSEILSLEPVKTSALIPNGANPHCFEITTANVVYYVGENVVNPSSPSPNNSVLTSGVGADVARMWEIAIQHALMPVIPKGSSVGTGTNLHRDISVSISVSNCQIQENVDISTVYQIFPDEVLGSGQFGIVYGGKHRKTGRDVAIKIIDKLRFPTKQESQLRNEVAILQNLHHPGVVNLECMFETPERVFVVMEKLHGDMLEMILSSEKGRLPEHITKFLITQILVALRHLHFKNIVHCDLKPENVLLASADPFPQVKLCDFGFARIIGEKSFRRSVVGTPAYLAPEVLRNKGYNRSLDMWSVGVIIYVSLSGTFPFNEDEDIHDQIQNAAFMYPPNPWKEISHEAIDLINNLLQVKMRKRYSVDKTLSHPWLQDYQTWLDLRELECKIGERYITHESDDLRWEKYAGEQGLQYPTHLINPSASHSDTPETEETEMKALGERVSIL
Insulin prom inh = inhibitors of insulin promoter-driven GFP, primary screen, imaging, TRM-6 cells (human fetal islet line), eGFP reporter, cell count; reporter expression induced with tamoxifen; inhibition, % at 2 µM; 0.9% of 130,000 active;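 active = inhibition above the mean plus 3 SD, with well images judged a real hit on visual review, cut at about 60% in these data, passing the limit was not always enough; inconclusive = inhibition over the cutoff but images rejected on review; inactive = inhibition not above the cutoff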
Insulin prom inh cell count = further read-out of Insulin prom inh, marked with its call; normalized cell count, %; measured here: cell count, toxicity; reference of the scale not given here;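 cells exposed to compound for 48 h; stained nuclei by imaging scaled within each plate; lower means fewer cells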
HSV augment primary fold = also measured in HSV augment; calls as there; fold increase; compound at 10 µM; measured here: primary screen fold increase 10 uM; tested in PC3 cells;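 GFP signal in the first replicate; 1 = infected wells without compound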
Starred values were filed as active, the others as inactive; i = inactive; ? = inconclusive; / = not tested or not shown.

The line under a structure holds: RGS16-Gao, HSV augment, HSV augment primary fold, GALR2 agonist, PKD1 inh, Insulin prom inh, Insulin prom inh cell count
#1 COc1ccccc1-c1c(C)nn2c(N3CCC4(CC3)OCCO4)cc(C)nc12
  104.3, i, 0.79, -1.7, 1.6, -250.0, 76.4
#2 Cn1c(C(=O)NCc2cccnc2)cc2sc(Cl)cc21
  103.2, i, 0.95, -0.8, 5.6, /, /
#3 CCOC(=O)CN1C(c2ccc(O)cc2)Nc2ccc(Br)cc2C1c1ccccc1 (configuration not stated)
  14.4*, i, 0.98, -1.2, -5.3, 0.0, 103.3
#4 Cc1occc1C(=O)NNC(=O)c1ccc(Br)o1
  100.8, i, 0.88, /, -4.6, /, /
#5 Cc1ccccc1NC(=O)C(Cc1ccccc1)n1cccc1 (configuration not stated)
  101.3, i, 0.99, /, /, /, /
#6 NC(=O)Cn1c(=O)oc2ccccc21
  102.8, i, 0.75, -0.5, -6.5, /, /
#7 N#Cc1ccc(NC(=S)NC(=O)CCc2ccc(S(=O)(=O)N3CCOCC3)cc2)cc1
  98.3, i, 1.1, /, 1.7, /, /
#8 O=C(CCCNS(=O)(=O)c1cccs1)N1CCN(c2cccc(Cl)c2)CC1
  104.6, i, 0.85, -0.8, -6.5, -43.8, 106.0
#9 CCCC(C)NC(=S)NC(=O)c1cc(S(=O)(=O)N2CCOCC2)ccc1C (configuration not stated)
  75.5, i, 0.88, -1.5, -11.3, -15.4, 155.1
#10 NC(=O)c1cc(C(=O)c2cccc(Cl)c2Cl)c[nH]1
  100.8, i, 0.92, /, 4.3, /, /
#11 CCCC(=O)N(c1ccc2oc(=O)sc2c1)S(=O)(=O)c1cccs1
  97.9, i, 1.02, -1.9, -11.7, -10.0, 146.7
#12 Cc1cccn2c(=O)c3cc(C(=O)N4COCC4(C)C)n(C)c3nc12
  102.5, /, /, 0.3, 5.2, 57.1, 96.3
#13 O=C(c1ccncc1)N(Cc1ccccc1)Cc1nc2ccccc2c(=O)[nH]1
  101.0, i, 0.943, -0.2, -2.6, /, /
#14 NC(=O)c1oc2ccccc2c1NC(=O)CN1CCCCC1
  105.4, i, 1.25, -2.4, -2.9, /, /
#15 CCCCCCC(=O)N1C/C=C\C(c2ccc(OC)cc2)N(Cc2ccc(F)cc2)C(=O)[C@H]1Cc1ccccc1 (some centres not stated)
  90.4, i, 0.95, /, /, /, /
#16 NC(=O)C1CCN(C(=O)CCc2nc3ccccc3c(=O)[nH]2)CC1
  104.2, i, 0.91, -1.8, -11.0, -18.6, 80.0
#17 COC(=O)Nc1nn(Cc2ccccc2F)cc1Br
  95.5, i, 0.88, -2.1, -8.3, 58.4, 104.1
#18 O=C(OCN1C(=O)c2ccccc2C1=O)c1ccco1
  102.3, i, 0.91, -1.6, 7.4, 15.0, 72.9
#19 O=[N+]([O-])c1ccc(Nc2nc(NCCO)nc(N3CCCC3)n2)cc1
  96.9, i, 1, /, -5.9, /, /
#20 Cc1c(NC(=O)NCCN2C(=O)C3C4C=CC(C4)C3C2=O)c(=O)n(-c2ccccc2)n1C (configuration not stated)
  117.8, i, 0.89, -3.1, 0.9, /, /
#21 COC(=O)CC1SC(=O)NC1=Nc1ccccc1 (configuration not stated)
  102.8, i, 0.81, -0.9, -1.2, 9.4, 90.5
#22 CN(C)CCN(C(=O)c1ccc(N2C(=O)CCC2=O)cc1)c1nc2cc3c(cc2s1)OCCO3
  96.6, i, 1.12, /, 6.3, /, /
#23 O=C(CCNC(=O)c1ccc(Br)o1)NCc1ccccn1
  101.5, i, 1.06, -2.4, 0.5, /, /
#24 Cc1cc2cc(C)c(NCCNC(=O)c3cccc(F)c3)nc2cc1C
  99.8, i, 1, /, 4.9, /, /
#25 COc1ccc2oc3cc(C)[n+]([O-])c(-c4ccc(Br)cc4)c3c2c1
  120.0, i, 0.91, -0.2, -7.4, /, /
#26 CC1(C)CC(=O)N(CC(=O)O)c2ccccc2S1(=O)=O
  102.6, i, 1.28, 0.4, -1.6, /, /
#27 CSc1oc(-c2ccco2)nc1S(=O)(=O)c1ccccc1
  89.6, i, 0.8, -3.5, -0.6, /, /
#28 Cc1ccc2nc(SCC(=O)O)nc(C)c2c1
  105.0, i, 0.83, -1.5, -1.9, 0.0, 68.4
#29 Cc1cc(C)n(-c2nc(NCCCN(C)C)c3c4c(sc3n2)CCCC4)n1
  110.8, i, 0.57, /, /, /, /
#30 CCOC(=O)N1CCN(CC(O)COCc2cc(OC)c(OC)c(OC)c2)CC1 (configuration not stated)
  121.6, i, 1, -0.2, -2.6, 14.3, 74.3

Two records drawn at random from those above:
The line under a structure holds: RGS16-Gao, HSV augment, HSV augment primary fold, GALR2 agonist, PKD1 inh, Insulin prom inh, Insulin prom inh cell count
#22 CN(C)CCN(C(=O)c1ccc(N2C(=O)CCC2=O)cc1)c1nc2cc3c(cc2s1)OCCO3
  96.6, i, 1.12, /, 6.3, /, /
#27 CSc1oc(-c2ccco2)nc1S(=O)(=O)c1ccccc1
  89.6, i, 0.8, -3.5, -0.6, /, /

New compounds follow:
The line under a structure holds: RGS16-Gao, HSV augment, HSV augment primary fold, GALR2 agonist, PKD1 inh, Insulin prom inh, Insulin prom inh cell count
#31 CCOC(=O)c1cc(-c2ccc3c(c2)OCO3)nc2onc(C)c12
  106.2, i, 0.79, -1.7, 9.5, -21.4, 107.5
#32 COc1ccc(N/C=C\C(=O)c2ccc3c(c2)OCO3)cc1
  93.3, i, 1, -2.2, 3.4, -5.7, 108.6
#33 O=C(Nc1ccccc1C(=O)NC1CCCC1)NC1CCCC1
  101.2, i, 0.79, 0.1, 12.6, /, /
#34 O=C(c1cc(-c2ccccc2)nc2ccccc12)N1CCOCC1
  94.4, i, 0.93, -3.2, -10.9, -73.3, 62.0
#35 CNC(=S)N(Cc1ccc2c(c1)OCO2)C1CC(=O)N(c2ccc(F)cc2)C1=O (configuration not stated)
  85.0, i, 1.07, -3.6, 1.6, -38.5, 100.0
#36 O=C(CNC(=S)N(Cc1ccccc1)Cc1cccnc1)NC1CC1
  50.6, i, 0.96, 0.2, -5.9, /, /
#37 Cc1nn(-c2ccccc2)c(OC(=O)c2cccs2)c1S(=O)(=O)c1ccc([N+](=O)[O-])cc1
  77.0, i, 0.88, -3.7, 0.5, -32.1, 100.0
#38 CN1CCc2c(sc3c2C(=O)NC(/C=C/c2ccco2)N3)C1 (configuration not stated)
  /, i, 1.18, -1.0, 0.7, 10.0, 70.2
#39 CN(C)c1ccc(/C=N/NC(=O)c2nnn(-c3nonc3N)c2COc2ccc(F)cc2)cc1
  93.9, i, 1.03, /, /, /, /
#40 CCCCc1ccc(NC(=S)N2CCCC(C)C2)cc1 (configuration not stated)
  107.2, i, 1.12, /, -0.6, -29.4, 122.3
#41 c1ccc(Cn2nnc(CNc3ccccc3)c2-c2c(CNc3ccccc3)nnn2Cc2ccccc2)cc1
  88.5, i, 0.78, /, /, /, /
#42 O=C(CSc1nc(O)cc(=O)[nH]1)C1CC1
  97.7, i, 1.03, -3.7, 4.4, -41.9, 98.8
#43 O=S(=O)(c1ccc(Cl)cc1)N1CCN(c2ccc(N3CCOCC3)nn2)CC1
  105.1, i, 0.99, -1.3, 13.3, -7.4, 115.0
#44 CCCN1CCN(CCCNC(=O)Cn2nc(-c3ccc(Cl)cc3)ccc2=O)CC1
  265.7, /, /, -1.2, -8.2, -25.9, 135.7
#45 CC(C)(C)OC(=O)N/N=C/c1cn(-c2ccccc2)nc1-c1cccnc1
  96.6, i, 0.76, /, 4.1, -22.2, 100.0
#46 CCOC(=O)N1CCN(C(=O)/C=C/c2ccc3c(c2)OCO3)CC1
  100.5, i, 0.87, 0.7, 6.0, -27.6, 157.8
#47 CCCCNC(=O)c1ccccc1NC(=O)c1ccc2c(c1)OCO2
  106.2, i, 0.94, /, 7.8, 48.8, 102.3
#48 CN(c1ccc(Cl)cc1)c1cc(=O)n(C)c2ccccc12
  102.9, i, 0.8, -1.3, 3.5, -179.2, 118.6
#49 O=C(CSc1nc2ccccc2o1)NCc1ccc2c(c1)OCO2
  102.0, i, 0.79, -1.5, -19.1, /, /
#50 N/C(=N\OC(=O)c1ccc(Br)o1)c1cccnc1
  100.6, i, 1.01, /, 1.6, -37.5, 76.3
#51 O=C(CSc1nnc(Cc2cccs2)n1-c1ccccc1)NC1CCCCC1
  117.1, i, 1.04, -3.3, -6.4, -73.4, 100.9
#52 COCc1c(Br)c(C)[nH]c(=O)c1C#N
  104.5, i, 0.93, -2.0, -8.0, 17.9, 92.6
#53 Cc1ccn2cc(-c3cccc(NS(C)(=O)=O)c3)nc2c1
  127.7, i, 0.98, /, -2.2, /, /
#54 O=C(CNC(=O)C1CCCCC1)Nc1ccccc1Cl
  77.9, i, 0.95, -1.8, -3.9, -23.3, 71.4
#55 CCCCN(C)C(=O)CCC(=O)NNc1nc2ccccc2c2nc(C)nn12
  124.3, i, 1.01, 0.5, 1.7, /, /
#56 CSc1nc2ccc(NC(=O)c3nn(C(C)C)c(=O)c4ccccc34)cc2s1
  110.1, i, 0.93, -1.8, -7.2, -40.7, 86.5
#57 C/C(=N/NC(=O)c1ccco1)c1cccnc1
  100.9, i, 0.89, /, -2.5, 14.3, 122.2
#58 O=C1/C(=C/c2cccs2)CCc2ccccc21
  151.5, i, 1.02, -3.0, 0.9, -11.4, 117.9
#59 Cc1cc(C(=O)COC(=O)CCC(=O)c2ccc3c(c2)OCCO3)c(C)n1Cc1ccco1
  92.7, i, 1.09, -3.6, -6.8, -42.9, 88.8
#60 CCCOc1ccc(C(=O)NCCC(=O)NCCCC(=O)OCC)cc1
  88.1, i, 1.27, -0.4, -1.8, -36.4, 82.5

Three successive records already listed:
The line under a structure holds: RGS16-Gao, HSV augment, HSV augment primary fold, GALR2 agonist, PKD1 inh, Insulin prom inh, Insulin prom inh cell count
#58 O=C1/C(=C/c2cccs2)CCc2ccccc21
  151.5, i, 1.02, -3.0, 0.9, -11.4, 117.9
#59 Cc1cc(C(=O)COC(=O)CCC(=O)c2ccc3c(c2)OCCO3)c(C)n1Cc1ccco1
  92.7, i, 1.09, -3.6, -6.8, -42.9, 88.8
#60 CCCOc1ccc(C(=O)NCCC(=O)NCCCC(=O)OCC)cc1
  88.1, i, 1.27, -0.4, -1.8, -36.4, 82.5

New compounds follow:
The line under a structure holds: RGS16-Gao, HSV augment, HSV augment primary fold, GALR2 agonist, PKD1 inh, Insulin prom inh, Insulin prom inh cell count
#61 CCOC(=O)c1cnc(-n2nc(C)cc2C)nc1Oc1ccccc1F
  104.7, i, 0.93, /, /, /, /
#62 c1csc(-c2noc(COc3ccc4c(c3)CCCC4)n2)c1
  106.6, i, 0.96, 2.4, 1.2, -12.5, 75.3
#63 COc1ccc(NC(=O)CSc2ncnc3[nH]ncc23)cc1
  106.4, i, 1.02, /, /, /, /
#64 CN1CCN(C(=O)/C(=C/c2ccccc2)c2ccccc2)CC1
  95.6, i, 0.75, -1.6, -8.5, 42.9, 181.7
#65 Cc1ccc2oc(=O)c3cnn(CC(=O)NC4CCCCC4C)c3c2c1 (configuration not stated)
  113.4, i, 1.08, -4.2, 2.2, /, /
#66 COc1ccc(CN2CCC(N3CCC(C(=O)N4CCOCC4)CC3)CC2)c(F)c1
  108.8, i, 0.94, /, 6.7, /, /
#67 Cc1ccc(CSc2nnc(-c3ccncc3)n2CC2CCCO2)cc1 (configuration not stated)
  98.7, i, 1.06, -1.7, -4.3, -34.2, 182.6
#68 O=S(=O)(Nc1ccccc1)c1ccc2c(c1)CCO2
  100.1, ?, /, /, /, /, /
#69 Cc1ncoc1C(=O)N1CCCC(CCC(=O)NCc2ccc(F)c(F)c2)C1 (configuration not stated)
  111.0, i, 1, /, -13.2, -17.4, 134.0
#70 Cc1ccccc1Cn1c(=O)n(CC2CCC(C(=O)NCCc3ccccc3)CC2)c(=O)c2ccccc21 (configuration not stated)
  196.2, i, 0.9, -1.7, 2.1, 0.0, 49.4
#71 CC(=O)c1cccc(NC(=O)c2cc(-c3ccc(C)cc3)on2)c1
  106.6, i, 0.89, -2.3, -18.6, 50.0, 97.9
#72 COc1cc2c(cc1OC)-c1nnc(-c3ccco3)n1C1(CCCC1)C2
  110.2, i, 0.96, -1.7, -9.2, 21.1, 163.0

High-throughput results: PubChem BioAssay, several laboratories
